HSV augment: increases HSV replication in cells; HSV replication augmentation in cells, fold increase; maximum fold increase; actives 0.005% (n = 220,000); AID 1956;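 active = peak rise of 1.5-fold or more in the series; tested in PC3 cells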;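 also: first round at 10 µM; read as green reporter fluorescence; hits show the peak of a series up to 25 µM; 1 = signal of infected wells without compound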
GALR2 agonist: GALR2 (human) receptor agonism; activation, %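 (tested at 5 µM)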; GALR2-expressing cells, agonist activation read-out; O43603; AID 803; actives 0.48% (n = 140,000);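 active = above mean plus 3 SD of all compounds, about 5% in these data, not always enough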;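 also: 0% = vehicle buffer wells and 100% = reference agonist at full effect; tested in CHO reporter cells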
Target sequence (O43603 whole entry, looked up): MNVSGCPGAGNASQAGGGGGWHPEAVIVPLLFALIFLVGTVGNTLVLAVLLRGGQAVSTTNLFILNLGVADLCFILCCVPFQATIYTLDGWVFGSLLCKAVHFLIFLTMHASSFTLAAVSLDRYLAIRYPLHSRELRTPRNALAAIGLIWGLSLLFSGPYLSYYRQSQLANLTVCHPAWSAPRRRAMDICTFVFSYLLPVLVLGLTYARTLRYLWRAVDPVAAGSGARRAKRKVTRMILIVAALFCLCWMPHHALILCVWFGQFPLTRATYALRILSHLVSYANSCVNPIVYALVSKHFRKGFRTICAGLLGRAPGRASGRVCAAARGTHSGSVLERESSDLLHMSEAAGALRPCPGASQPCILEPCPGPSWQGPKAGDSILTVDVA
RGS16-Gao: regulators of human RGS16-Galphao interaction; bead-based flow cytometry RGS16-Galphao binding, fluorescence; actives lie on both sides; binding response (% of control), % at 10 µM; actives 0.38% (n = 220,000);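 active = below 25% or above 175%, edge rows of some plates excepted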;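 also: Galphao activated by GDP with aluminum fluoride before binding; 100% = wells without compound and 0% = beads without RGS; some results beyond the cut were filed as inactive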
Target sequence (O15492 whole entry, looked up): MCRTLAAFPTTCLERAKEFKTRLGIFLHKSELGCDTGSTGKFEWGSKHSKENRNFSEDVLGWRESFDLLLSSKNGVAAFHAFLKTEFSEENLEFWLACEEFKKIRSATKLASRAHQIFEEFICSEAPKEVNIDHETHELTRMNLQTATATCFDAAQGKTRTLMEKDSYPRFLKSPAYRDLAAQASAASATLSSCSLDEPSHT
Target sequence (P09471 whole entry, looked up): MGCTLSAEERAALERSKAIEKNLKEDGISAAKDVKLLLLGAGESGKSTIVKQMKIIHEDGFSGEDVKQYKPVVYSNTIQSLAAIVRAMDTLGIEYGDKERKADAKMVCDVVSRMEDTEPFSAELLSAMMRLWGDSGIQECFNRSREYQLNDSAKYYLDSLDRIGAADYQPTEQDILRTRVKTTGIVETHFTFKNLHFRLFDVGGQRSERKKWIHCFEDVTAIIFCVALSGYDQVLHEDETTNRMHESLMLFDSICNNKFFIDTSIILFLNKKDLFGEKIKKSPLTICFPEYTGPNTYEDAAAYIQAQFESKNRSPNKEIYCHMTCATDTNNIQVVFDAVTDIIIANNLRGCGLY
INS promoter inh: TRM-6 insulin promoter activity inhibition | inhibition, % at 2 µM | actives 0.9% (n = 130,000) | AID 1273 | TRM-6 cells (human fetal islet line), insulin promoter-eGFP reporter, imaging; reporter expression induced with tamoxifen;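 active = inhibition above the mean plus 3 SD, with well images judged a real hit on visual review, cut at about 60% in these data, passing the limit was not always enough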
PKD1 kinase inh: blocks activity of human protein kinase D1; inhibition, %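 (about 10 µM by stock and volumes)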; Q15139; PKD1 kinase fluorescence polarization assay; AID 797; actives 0.056% (n = 200,000);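 active = inhibition of 50% or more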;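 also: controls were vehicle for no effect and a reference inhibitor for full effect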
INS promoter inh cell count: further read-out of INS promoter inh, marked with its call; normalized cell count, %; measured here: cell count, toxicity; reference of the scale not given here;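 cells exposed to compound for 48 h; stained nuclei by imaging scaled within each plate; lower means fewer cells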
HSV augment primary fold: also measured in HSV augment; calls as there; fold increase; compound at 10 µM; measured here: primary screen fold increase 10 uM; tested in PC3 cells;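 GFP signal in the first replicate; 1 = infected wells without compound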
The depositor's hits bear a star; i = inactive; nt = no result given.

SMILES	HSV augment	HSV augment primary fold	GALR2 agonist	RGS16-Gao	INS promoter inh	INS promoter inh cell count	PKD1 kinase inh
CC(C)C(O)P(=O)(OCc1ccccc1)c1ccc(N(C)C)cc1 (stereo unspecified)	i	0.8	1.0	101	-27	115	5
COc1cccc(CN(C(=O)/C=C/c2ccc(Cl)cc2)C2CCS(=O)(=O)C2)c1 (stereo unspecified)	i	0.95	nt	101	nt	nt	-2
Cc1cccc(OCC(=O)N2CCN(C(=O)Cc3ccccc3)CC2)c1	i	1.1	-1.8	102	nt	nt	-4
OCc1nnn(-c2ccccc2)c1CO	i	0.85	nt	101	nt	nt	nt
Cc1nn(-c2ccc([N+](=O)[O-])cc2)c2c1C(c1cccc(Br)c1)N1C(=N2)C(=O)Nc2ccccc21 (stereo unspecified)	i	0.96	0.3	97	37	128	-12
CCOC(=O)c1cnn(-c2cc(C)nc3c(-c4ccc(Cl)cc4)c(C)nn23)c1N	i	0.91	-3.4	106	-34	113	1
COc1ccc(CN(CCC(c2ccccc2)C2CCOC(C)(C)C2)C(C)=O)cc1 (stereo unspecified)	i	1.1	-2.0	78	-38	39	-13
Cc1cc(C)nc(NS(=O)(=O)c2ccc(N/C=C/C(=O)c3ccc(Cl)c(Cl)c3)cc2)n1	i	1.1	-0.6	109	32	114	9
Fc1ccccc1N=C1NN=C(c2ccccc2)CS1	i	0.75	nt	101	nt	nt	-2
CCOC(=O)C1CSC2(CCC(c3ccccc3)CC2)N1 (stereo unspecified)	i	0.89	nt	99	nt	nt	1
Cc1[nH]n2cnnc2c(=O)c1Br	i	0.87	nt	81	nt	nt	nt
COC(=O)c1c(-c2ccncc2)csc1NC(=O)c1ccoc1C	i	1	-0.7	98	9	124	1
O=C(NCc1cccs1)C1CCCN1C(=O)Nc1ccc(F)cc1 (stereo unspecified)	i	0.92	nt	106	nt	nt	nt
C=CCN1C(c2ccc(Br)cc2)=CS/C1=C(/C#N)c1nnc(N2CCOCC2)n1-c1ccccc1	i	1	-0.3	110	-39	39	-7
O=c1c(-c2ccccc2)cnc2n1CCS2	i	0.85	nt	95	nt	nt	-4
O=C(NCCCn1cccn1)c1cc(COc2ccc(F)cc2Cl)on1	i	0.93	nt	99	nt	nt	-6
C=CCn1c(COc2ccccc2)nnc1SCC(=O)Nc1ccc2c(c1)OCCO2	i	0.94	-1.3	104	-92	116	7
Cc1cccc(C)c1OCC(=O)N/N=C/c1ccc2c(c1)OCO2	i	0.8	-0.8	102	-10	95	15
CCC(=O)Nc1nc2ccccc2n1CCN(CC)CC	i	0.91	-2.2	91	37	59	-2
NS(=O)(=O)c1ccc(NC(=S)N2CCC(O)CC2)cc1	i	0.9	nt	98	nt	nt	2
Oc1ccc(Cl)cc1-c1cc(-c2ccccc2)n[nH]1	i	0.84	-0.8	108	nt	nt	-6
CCOC(=O)Nc1cc(C(=O)OCC)c(C)nc1C	i	0.96	-1.7	55	25	117	10
Cc1nc(N2CCOCC2)[nH]c(=O)c1CCC(C)C	i	0.71	-1.6	101	28	33	-16
Cn1c(=O)c(C(=O)Nc2ncccc2O)c(O)c2ccccc21	i	0.76	-0.5	90	4	90	-12
COC(=O)c1cn(CC(=O)NCc2ccco2)c2ccccc12	i	0.95	-2.6	108	-95	95	-7
CCNC(=S)NNc1ccccc1	i	1.3	nt	103	nt	nt	nt
Cc1ccc(CN2CCN(Cc3cccn3-c3nccs3)CC2CCO)cc1 (stereo unspecified)	i	0.9	nt	103	nt	nt	-1
O=C(O)CCCC(=O)Nc1ccc(Oc2ncnc3cc(Cl)ccc23)nc1	i	1.1	nt	107	nt	nt	nt
CC1(C)C2CCC1(C)C(OC(=O)CNc1ccccc1)C2 (stereo unspecified)	i	1.1	nt	94	nt	nt	nt
Cc1ccc(Nc2ccc(C(=O)NC3CCCCC3)cn2)cc1	i	0.86	nt	89	nt	nt	nt
O=C(NCc1ccccc1)c1ccc(Br)cc1	i	1.1	nt	98	nt	nt	8
CC(=O)c1c(C)nc2ccc(C)cc2c1-c1ccccc1	i	0.85	nt	103	9	96	-15
O=C(Oc1ccc(/C=N/NC(=O)c2ccccc2O)cc1)c1ccccc1	i	1	-0.7	106	39	95	-14
COc1ccc2nc(SCC(=O)NC3CCCc4ccccc43)[nH]c2c1 (stereo unspecified)	i	0.85	-0.2	84	-17	117	-12
NCCS(=O)(=O)NC1CCCCC1	i	0.92	nt	105	nt	nt	-4
NC(=O)c1ccc(-n2nc(C(F)(F)F)c3c2CCCC3)cc1	i	0.82	-1.4	111	nt	nt	-8
CCOC(=O)C1(Cc2ccc(Cl)cc2)CCN(C(=O)c2ccoc2)CC1	i	1	nt	83	nt	nt	-5
CCn1c(CC(C)C)n[nH]c1=S	i	1	-1.7	57	7	94	-13
Cc1cccc(NC(=O)c2ccc(NCCc3ccccc3)c([N+](=O)[O-])c2)c1	i	1.1	-1.7	101	-7	120	5
COc1ccc2c(CC(=O)Nc3ncc(C)s3)coc2c1	i	0.87	nt	173	-48	68	-3
COc1ccc(CN(C(=O)c2cccs2)c2nccs2)cc1OC	i	0.88	-1.6	95	16	131	-6
O=C(CN1CCOCC1)NN=C(c1ccccc1)c1ccccc1	i	1	nt	101	nt	nt	0
N#Cc1cccc(NC(=O)COC(=O)c2ccc3c(=O)n4c(nc3c2)CCC4)c1	i	0.89	nt	101	nt	nt	7
CC(C)CC(=O)Nc1cccc(-c2nc3ccccc3o2)c1	i	0.7	-2.9	99	-61	73	-4
COc1ccc(NC(=O)c2cccs2)cc1	i	0.96	-1.6	96	-225	47	-2
CCc1nn(CCCN2CCN(c3cccc(Cl)c3)CC2)c(=O)n1CCOc1ccccc1	i	0.82	nt	94	nt	nt	nt
CC1CC(N(C(=O)c2ccco2)c2ccccc2)c2ccccc2N1 (stereo unspecified)	i	0.95	-1.8	104	nt	nt	-10
CN(C)C(=O)c1cc2cc(Br)ccc2s1	i	1.1	nt	98	nt	nt	-7
COCC(C)n1c(COc2ccccc2F)nnc1SCc1c(C)noc1C (stereo unspecified)	i	0.9	-2.5	86	0	113	-16
CC1CCC(C(C)C)C(OC(=O)C[n+]2cc(-c3ccc(Cl)cc3)n3c2CCC3)C1 (stereo unspecified)	i	0.9	nt	99	nt	nt	nt
O=C(c1ccc([N+](=O)[O-])o1)N1CCOCC1	i	1	nt	102	nt	nt	4
O=C(Nc1ccc(N2CCOCC2)cc1)C1CCN(S(=O)(=O)c2ccccc2F)CC1	i	1.1	nt	100	nt	nt	nt
CCOc1ccc(OCCCCN2CCCC2)cc1	i	0.92	-3.0	113	-6	15	0
CC(C)c1nc2sc3c(SCC(N)=O)ncnc3c2c2c1CCC2	i	1.1	nt	100	nt	nt	nt
CN(C)c1ccc(/C=N/NC(=O)CN(c2cccc(Cl)c2)S(C)(=O)=O)cc1Br	i	0.93	-0.9	72	-10	98	10
Cc1nn(Cc2ccccc2)c(Cl)c1/C=C/C(=O)OC(C)C(=O)N1CCCC1 (stereo unspecified)	i	0.84	nt	111	-75	83	-9
CCCS(=O)(=O)N1CCN(Cc2ccc([N+](=O)[O-])cc2)CC1	i	1	-0.9	113	nt	nt	-12
CCOc1ccc(Nc2oc(-c3ccc(Cl)cc3)nc2C#N)cc1	i	0.88	-0.5	106	-42	101	-6
COc1ccc(N2C(=O)CC(Nc3ccc(C)cc3)C2=O)cc1 (stereo unspecified)	i	0.98	-3.1	96	-35	80	-2
CCCCOP(=O)(c1ccc(N(C)C)cc1)C(O)c1cc(OC)c(OC)c(OC)c1 (stereo unspecified)	i	1	nt	92	nt	nt	nt

Next part (2 carried over from the part before).
SMILES	HSV augment	HSV augment primary fold	GALR2 agonist	RGS16-Gao	INS promoter inh	INS promoter inh cell count	PKD1 kinase inh
COc1ccc(N2C(=O)CC(Nc3ccc(C)cc3)C2=O)cc1 (stereo unspecified)	i	0.98	-3.1	96	-35	80	-2
CCCCOP(=O)(c1ccc(N(C)C)cc1)C(O)c1cc(OC)c(OC)c(OC)c1 (stereo unspecified)	i	1	nt	92	nt	nt	nt
Cc1ccccc1C1c2[nH]c3ccccc3c2CCN1C(=O)c1ccc(=O)n(C)n1 (stereo unspecified)	i	0.94	nt	95	nt	nt	-5
O=C(O)c1ccn2c(C(=O)c3ccccc3)c(-c3ccccc3)cc2c1	i	1.1	nt	100	nt	nt	nt
Cc1nn(CC(=O)Nc2sc3c(c2C#N)CCC(C(C)(C)C)C3)c(C)c1[N+](=O)[O-] (stereo unspecified)	i	1	-1.9	94	9	119	-1
CO/N=C\c1cc(C(=O)c2ccc(Cl)cc2Cl)cn1C	i	1.1	nt	100	nt	nt	5
Cc1cccc(N2CCN(C(=O)CCn3c(=O)[nH]c4ccccc4c3=O)CC2)c1C	i	0.94	-0.6	104	nt	nt	-11
S=C(Nc1ccccc1)Nc1ccc(OCc2ccc(Cl)cc2Cl)cc1	i	0.83	-2.1	72	41	120	9
COC(=O)CC1NCCc2cc(OC)c(OC)cc21 (stereo unspecified)	i	0.94	nt	121	nt	nt	-3
CN(c1ccc(OCc2nnc(-c3ccccc3)o2)cc1)S(=O)(=O)c1ccccc1	i	0.85	0.2	104	21	86	-4
O=S(=O)(c1ccc(NC(=S)N/N=C/c2ccc(N3CCOCC3)cc2)cc1)N1CCOCC1	i	0.87	0.6	101	7	134	-4
Cc1ccc(S(=O)(=O)/N=C(\Sc2ccccc2)c2ccccc2)cc1	i	1	-1.6	96	28	105	-7
COC(=O)CSc1[nH]c2ccccc2c1[N+](=O)[O-]	i	0.91	nt	98	nt	nt	nt
O=[N+]([O-])c1cc(/C=N\Nc2nccs2)ccc1O	nt	nt	-1.5	98	nt	nt	-1
CCOc1cc(C2NC(=O)NC(O)(C(F)(F)F)C2C(=O)c2ccc(Cl)cc2)ccc1O (stereo unspecified)	i	0.74	-0.7	78	26	134	8
COc1ccc(CC(=O)NCc2nnc(SCC(=O)Nc3ncc(C)s3)n2C)cc1	i	0.91	nt	104	6	192	-3
COc1cccc(Cn2nnc(C(=O)NCCc3ccc(Cl)cc3)c2N)c1	i	0.93	-1.7	111	nt	nt	-5

Retrieved one by one from the entries so far (three):
SMILES	HSV augment	HSV augment primary fold	GALR2 agonist	RGS16-Gao	INS promoter inh	INS promoter inh cell count	PKD1 kinase inh
S=C(Nc1ccccc1)Nc1ccc(OCc2ccc(Cl)cc2Cl)cc1	i	0.83	-2.1	72	41	120	9
Cc1nn(CC(=O)Nc2sc3c(c2C#N)CCC(C(C)(C)C)C3)c(C)c1[N+](=O)[O-] (stereo unspecified)	i	1	-1.9	94	9	119	-1
COC(=O)CSc1[nH]c2ccccc2c1[N+](=O)[O-]	i	0.91	nt	98	nt	nt	nt

New compounds follow:
SMILES	HSV augment	HSV augment primary fold	GALR2 agonist	RGS16-Gao	INS promoter inh	INS promoter inh cell count	PKD1 kinase inh
O=C(Nc1nnc(SCc2c(Cl)cccc2Cl)s1)c1ccc2ncsc2c1	i	0.8	nt	92	nt	nt	1
NC(=S)N/N=C/c1coc2cc(Cl)ccc2c1=O	i	1.1	-0.9	107	nt	nt	14
N/C(=N\OC(=O)c1ccccc1)c1ccncc1	i	0.84	nt	103	nt	nt	2
O=C(CSC1CCCCC1)Nc1nccs1	nt	nt	-0.9	-1	nt	nt	-8
Cc1ccc(Cl)cc1NC(=O)c1ccc(Cn2cc(Cl)cn2)cc1	i	0.95	-1.3	99	6	78	3
CC(=O)C(N=Nc1ccccc1)(Sc1nnc(-c2ccccc2)n1-c1ccccc1)C(C)=O	i	1.2	-2.8	108	-38	90	1
Cn1cnnc1SC(C(=O)Nc1cccc(C(F)(F)F)c1)c1ccccc1 (stereo unspecified)	i	1	0.3	103	24	113	-1
COc1cc(CNCCO)cc(Cl)c1OCc1ccccc1Cl	i	0.74	nt	55	nt	nt	5
Cc1ccc(S(=O)(=O)N2CCCN(C(=O)OC(C)(C)C)CC2)cc1	i	1	nt	105	nt	nt	nt
N#Cc1cc2c([nH]c1=S)CCCCCC2	i	1.1	-1.1	129	nt	nt	-4
COCCCNC(=O)c1ccc(N(C)S(C)(=O)=O)cc1	i	0.92	-2.4	62	55	135	1
CCS(=O)(=O)c1ccc(C(=O)NC)c(Cl)c1Cl	i	1.1	nt	106	21	105	3
COC(=O)c1cc(-c2ccc(OC)c(OC)c2)n[nH]1	i	0.9	1.0	75	24	157	-12
CCO/C(C)=C1\C(=O)Nc2ccccc21	i	1.1	-1.7	97	26	54	-3
CCOC(=O)C1CCN(S(=O)(=O)Cc2ccccc2)C1=O (stereo unspecified)	i	1	-0.1	102	nt	nt	-10
O=C(Nc1ccc(F)cc1)c1cc2c(s1)CCCC2	i	0.94	nt	107	nt	nt	nt
Cc1ccc(NC(=O)c2cc3ccccc3oc2=O)cc1S(=O)(=O)N(C)C	i	1	nt	91	53	80	3
Cc1nc(NCc2ccccn2)c2c3c(sc2n1)CCCC3	i	0.96	nt	100	7	75	2
Cn1c2ccccc2c2n[nH]c(=O)nc21	i	0.8	nt	107	7	56	-3
Cc1nc(SCC(=O)NC(=O)NC(C)C)nc(C)c1C	i	1.1	nt	100	-6	97	3

Screening data as filed in PubChem BioAssay.
